# Screening results deposited in PubChem BioAssay by Broad Institute.
# ID4 binder: binders of human ID4 protein, primary screen, biochemical, small molecule microarray, single point; calls only; AID 624137, 2012; Flag-ID4 binding, fluorescence F/B; DNA-binding protein inhibitor ID-4 (Homo sapiens), P47928; 1.2% of 31,000 active;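 active means spot signal over background at p below 0.07 in all four prints; compounds were printed on slides so no solution concentration is given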;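 further: a binder raises fluorescence above local background on the spot; about 2 pmol printed per array spot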
# Target sequence (P47928 whole entry, looked up): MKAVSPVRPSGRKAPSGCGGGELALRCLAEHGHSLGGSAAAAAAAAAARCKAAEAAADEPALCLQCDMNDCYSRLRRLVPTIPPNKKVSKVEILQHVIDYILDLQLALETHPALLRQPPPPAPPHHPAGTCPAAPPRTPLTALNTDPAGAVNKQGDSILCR
# Calls only; i = inactive.
SMILES	ID4 binder
O=C(Nc1cc(C(F)(F)F)ccc1N1CCc2ccccc2C1)c1ccccc1	i
O=C(CSc1nc(O)cc(=O)n1-c1ccccc1)Nc1ccccc1	i
Cc1ccccc1NC(=O)C1CC=CCC1C(=O)O (centres undefined)	i
CN(C)C(=O)C[C@H]1CC[C@@H](NC(=O)C2CCC2)[C@H](CO)O1	i
O=C1c2ccccc2C(=O)N1C[C@@H]1CCCN(Cc2cccc(OCCO)c2)C1	i
COc1ccc(OC)c(NC(=O)CCN2CCN(c3ccccc3F)CC2)c1	i
COc1ccc(C(=O)CC2(O)C(=O)N(CCCC#N)c3ccccc32)c(OC)c1 (centres undefined)	i
COc1cccc(-c2cnc3c(c2)C(=O)N([C@@H](C)CO)C[C@H](C)[C@H](CN(C)CC2CCOCC2)O3)c1	i
COc1ccc(C(=O)CSc2nnc(-c3cccc(C)c3)n2-c2ccccc2)cc1	i
Cc1cc(C)c(NC(=O)CN(c2ccc(Oc3ccccc3)cc2)S(C)(=O)=O)c(C)c1	i
CO[C@H](CN(C)C(=O)c1cc(Cl)cc(Cl)c1)[C@H](C)CN(C(=O)Nc1ccc(F)cc1)[C@@H](C)CO	i
CC1=C[C@@H](O)[C@H]2C(C)(C)CCC[C@]2(C)[C@@]1(O)CO	i
Cc1nnc(SCC(=O)Nc2c(C)n(C)n(-c3ccccc3)c2=O)s1	i
C[C@@H]1CN([C@@H](C)CO)S(=O)(=O)c2ccc(C#CC3CCCC3)cc2O[C@H]1CN(C)Cc1cncnc1	i
CC(=O)N(C)C[C@H]1OCc2ccccc2-c2c(n(C)c3ccccc23)C(=O)N([C@@H](C)CO)C[C@H]1C	i

SMILES	ID4 binder
COc1ccc(NC(=O)CNC(=O)c2ccc(OC)c(OC)c2)cc1Cl	i
COc1ccc(CNC(=O)C[C@@H]2CC[C@H](NC(=O)CN(C)C)[C@H](CO)O2)cc1	i
O=C(CSc1nnc(-c2cccnc2)n1-c1cccc(C(F)(F)F)c1)c1ccc(F)cc1	i
C[C@H]1CN([C@@H](C)CO)C(=O)c2cc(/C=C/c3ccccc3)cnc2O[C@@H]1CN(C)Cc1ccncc1	i
C[C@H]1CN([C@@H](C)CO)C(=O)c2cc(C#CC3CCCCC3)cnc2O[C@H]1CN(C)Cc1cccnc1	i
Cc1ccc(-c2cnc3c(c2)C(=O)N([C@@H](C)CO)C[C@@H](C)[C@H](CN(C)Cc2ccccc2F)O3)cc1	i
COc1ccc([N+](=O)[O-])cc1NC(=O)CS(=O)(=O)Cc1ccccc1	i
COc1cccc(C#Cc2cnc3c(c2)C(=O)N([C@H](C)CO)C[C@H](C)[C@@H](CN(C)C)O3)c1	i
O=C(CC1(O)C(=O)Nc2ccc(F)cc21)c1ccco1 (centres undefined)	i
CCc1cc(C(=O)OC)c(NC(=O)c2cc(-c3ccccn3)nc3ccc(Cl)cc23)s1	i
CC(=O)Nc1nonc1-c1nc2ccccc2n1Cc1cccc2ccccc12	i
O=C1c2ccccc2-c2n[nH]c3cccc1c23	i
O=C(CSc1nnc2ccc3ccccc3n12)Nc1nsc(-c2ccc(Cl)cc2)n1	i
C[C@@H]1CN([C@@H](C)CO)S(=O)(=O)c2ccc(C#CCN(C)C)cc2O[C@@H]1CN(C)C	i
O=C(CCN1C(=O)c2ccccc2C1=O)Nc1cccc(O)c1	i

# Among those listed so far, 9 have a halogen:
SMILES	ID4 binder
O=C(Nc1cc(C(F)(F)F)ccc1N1CCc2ccccc2C1)c1ccccc1	i
COc1ccc(OC)c(NC(=O)CCN2CCN(c3ccccc3F)CC2)c1	i
CO[C@H](CN(C)C(=O)c1cc(Cl)cc(Cl)c1)[C@H](C)CN(C(=O)Nc1ccc(F)cc1)[C@@H](C)CO	i
COc1ccc(NC(=O)CNC(=O)c2ccc(OC)c(OC)c2)cc1Cl	i
O=C(CSc1nnc(-c2cccnc2)n1-c1cccc(C(F)(F)F)c1)c1ccc(F)cc1	i
Cc1ccc(-c2cnc3c(c2)C(=O)N([C@@H](C)CO)C[C@@H](C)[C@H](CN(C)Cc2ccccc2F)O3)cc1	i
O=C(CC1(O)C(=O)Nc2ccc(F)cc21)c1ccco1 (centres undefined)	i
CCc1cc(C(=O)OC)c(NC(=O)c2cc(-c3ccccn3)nc3ccc(Cl)cc23)s1	i
O=C(CSc1nnc2ccc3ccccc3n12)Nc1nsc(-c2ccc(Cl)cc2)n1	i

# Remaining list, next part.
SMILES	ID4 binder
C[C@H]1CN([C@@H](C)CO)C(=O)c2cc(-c3cccnc3)cnc2O[C@H]1CN(C)C	i
COc1cccc(NC(=O)CSC2CC(=O)N(c3cc(C)cc(C)c3)C2=O)c1 (centres undefined)	i
CCN(CC(=O)O)S(=O)(=O)c1ccc(C)cc1	i
N#Cc1ccccc1CSc1nnc(-c2ccco2)n1-c1ccccc1	i
COc1ccc(CNC(=O)N(C)C[C@@H]2OCc3ccccc3-c3c(n(C)c4ccccc34)C(=O)N([C@H](C)CO)C[C@@H]2C)cc1	i
Cc1ccc(Nc2nc(N)nc(COc3cccc4cccnc34)n2)cc1	i
COC(=O)c1sccc1NC(=O)COc1cc(C)ccc1Cl	i
CCc1ccc(NC(=O)CSc2nnc(-c3ccc(Br)cc3)o2)cc1	i
Cc1nc(SCC(=O)Nc2sc3c(c2C#N)CCCC3)nc2c1CCCC2	i
CSc1ccccc1NC(=O)CN(c1cccc(F)c1)S(C)(=O)=O	i
O=C(C[C@H]1C=C[C@H](NC(=O)c2ccncc2)[C@H](CO)O1)NCCc1ccncc1	i
NC(=O)c1ccccc1NC(=O)CCCN1C(=O)c2ccccc2C1=O	i
Cc1noc(C)c1S(=O)(=O)N(C)C[C@H]1OCc2ccccc2-c2ccccc2C(=O)N([C@H](C)CO)C[C@H]1C	i
C[C@@H]1CN([C@@H](C)CO)C(=O)c2c(c3ccccc3n2C)-c2ccccc2CO[C@@H]1CN(C)CC1CC1	i
C[C@@H]1CN([C@@H](C)CO)S(=O)(=O)c2ccc(C#Cc3ccccn3)cc2O[C@@H]1CN(C)CC1CC1	i

SMILES	ID4 binder
CC(=O)Nc1cccc(-c2nnc(SCC(=O)Nc3ccc(C(C)=O)cc3)n2C)c1	i
c1ccc(-c2cnc(SCc3nc4ccccc4[nH]3)[nH]2)cc1	i
CN(C)C(=O)C[C@H]1C=C[C@H](NC(=O)C2CCC2)[C@@H](CO)O1	i
Cc1nn(Cc2ccc(Br)cc2)c(C)c1NC(=O)Cn1nc(C(F)(F)F)c2c1CCCCC2	i
CNC[C@H]1Oc2cc(Br)ccc2S(=O)(=O)N([C@@H](C)CO)C[C@H]1C	i
Cc1cccc(OCC(=O)Nc2ccccc2N2CCN(S(C)(=O)=O)CC2)c1C	i
COc1ccc(NC(=O)CNS(=O)(=O)c2ccccc2)cc1Cl	i
COC(=O)c1ccccc1NC(=O)COc1c(Cl)cc(Cl)c2ccccc12	i
C[C@@H]1CN([C@H](C)CO)C(=O)c2cc(C#Cc3cccc(F)c3)cnc2O[C@H]1CN(C)Cc1ccccn1	i
COc1ccccc1CN(C)C[C@@H]1OCc2ccccc2-c2ccccc2C(=O)N([C@H](C)CO)C[C@@H]1C	i
COc1ccc(C(=O)O)cc1NC(=S)NC(=O)COc1ccc(Br)cc1	i
O=C(C[C@@H]1C=C[C@@H](NC(=O)CC2CC2)[C@@H](CO)O1)NCc1ccc(Cl)cc1	i
COc1cccc(NC(=O)N[C@H]2C=C[C@@H](CC(=O)NCc3ccncn3)O[C@H]2CO)c1	i
COc1ccc(-c2cnc3c(c2)C(=O)N([C@@H](C)CO)C[C@@H](C)[C@H](CN(C)Cc2ccccc2)O3)cc1	i
Cc1cccc(NC(=O)CSc2nnc(-c3cccc(Br)c3)n2-c2ccccc2)c1	i

SMILES	ID4 binder
COC(=O)CCC(=O)Nc1ccc(S(N)(=O)=O)cc1	i
O=C(C[C@H]1CC[C@H](NC(=O)C2CCC2)[C@H](CO)O1)NCc1ccccc1Cl	i
O=[N+]([O-])c1cccc(NC(=S)Nc2nn(Cc3ccc(Cl)c(Cl)c3)cc2Br)c1	i
CC(=O)N(C)C[C@H]1Oc2cc(C#Cc3ccc(F)cc3)ccc2S(=O)(=O)N([C@@H](C)CO)C[C@@H]1C	i
CCn1c2ccccc2n2c(SCc3nc4ccccc4[nH]3)nnc12	i
O=C(C[C@H]1C=C[C@@H](NC(=O)Cc2cccnc2)[C@@H](CO)O1)Nc1ccccc1	i
O=C(CSc1nc(-c2ccccc2)cs1)Nc1ccccc1	i
C[C@@H]1CN([C@H](C)CO)C(=O)CCCn2nncc2CO[C@@H]1CN(C)CC1CCCC1	i
C[C@@H]1CN([C@H](C)CO)C(=O)c2cc(C#C[C@@H](C)O)cnc2O[C@H]1CN(C)CC1CCCC1	i
COc1ccc(-c2cnc3c(c2)C(=O)N([C@H](C)CO)C[C@H](C)[C@@H](CN(C)C)O3)cc1	i
CC(C)(Oc1ccc(Cl)cc1)C(=O)Nc1ccccc1-c1nc2ccccc2s1	i
Cc1cc(C)c(NC(=O)CN(c2ccc(C)c(C)c2)S(C)(=O)=O)c(C)c1	i
CN(CC(=O)O)S(=O)(=O)c1ccc(F)cc1	i
CO[C@@H](CN(C)Cc1cc(F)ccc1F)[C@H](C)CN([C@H](C)CO)S(=O)(=O)c1ccc(F)cc1	i
C[C@@H]1CN([C@@H](C)CO)C(=O)CCCn2nncc2CO[C@@H]1CN(C)Cc1ccccc1C(F)(F)F	i

SMILES	ID4 binder
C[C@@H]1CN([C@@H](C)CO)C(=O)c2cc(C#Cc3ccccc3F)cnc2O[C@@H]1CN(C)C	i
CO[C@H](CN(C)S(=O)(=O)c1ccc(C)cc1)[C@@H](C)CN(Cc1ccccc1Cl)[C@@H](C)CO	i
O=C1O[C@H](c2ccccc2)[C@H](c2ccccc2)N2[C@H]1[C@@H](C(=O)N1CCN(c3ncccn3)CC1)[C@]1(C(=O)Nc3ccccc31)[C@H]2c1ccc(O)cc1	i
COc1ccc(NC(=O)C(C)N(c2ccc(Cl)cc2)S(C)(=O)=O)cc1 (centres undefined)	i
Cc1nnc(SCC(=O)n2c3c(c4ccccc42)CCCC3)n1C	i
C[C@H]1CN([C@@H](C)CO)S(=O)(=O)c2ccc(/C=C/c3ccccc3)cc2O[C@H]1CN(C)CC1CC1	i
Cc1ccccc1-c1cnc2c(c1)C(=O)N([C@@H](C)CO)C[C@H](C)[C@H](CN(C)C(=O)CN(C)C)O2	i
C[C@H]1CN([C@@H](C)CO)C(=O)Cc2cc(N(C)C)ccc2O[C@H]1CN(C)C(=O)NC1CCCCC1	i
C/C=C/c1ccc2c(c1)O[C@@H](CN(C)CC1CCOCC1)[C@H](C)CN([C@H](C)CO)S2(=O)=O	i
COCC#Cc1cnc2c(c1)C(=O)N([C@H](C)CO)C[C@H](C)[C@@H](CN(C)C(=O)c1cccnc1)O2	i
O=C(Nc1cc(Cl)ccc1Cl)C1CN(S(=O)(=O)c2ccccc2)CCN1S(=O)(=O)c1ccccc1 (centres undefined)	i
Cc1ccc(Cl)cc1NC(=O)Cn1cnc2ccccc2c1=O	i
COCC#Cc1ccc2c(c1)O[C@@H](CN(C)CC1CC1)[C@@H](C)CN([C@H](C)CO)S2(=O)=O	i
O=C(Nc1ccccc1C(=O)NC1CCCCC1)c1ccc(Cl)c(S(=O)(=O)N2CCOCC2)c1	i
C[C@H](CO)N1C[C@H](C)[C@@H](CN(C)C)Oc2ncc(-c3cccc(F)c3)cc2C1=O	i

SMILES	ID4 binder
CC(=O)c1cccc(N(CC(=O)Nc2ccc(C)cc2)S(C)(=O)=O)c1	i
C[C@@H]1CN([C@@H](C)CO)C(=O)c2cc(C#CCN(C)C)cnc2O[C@@H]1CN(C)C(=O)Cc1ccccc1	i
NC(=O)CS(=O)(=O)c1nc2ccccc2n1CC(=O)N1CCCCC1	i
CC(=O)N(C)C[C@@H]1Oc2ncc(Br)cc2C(=O)N([C@H](C)CO)C[C@@H]1C	i
C[C@@H]1CN([C@@H](C)CO)S(=O)(=O)c2ccc(C#CC3CCCC3)cc2O[C@H]1CN(C)C	i
NC(=O)C1(N2CCCCC2)CCN(C(=O)CSc2nc3ccccc3[nH]2)CC1	i
CC(=O)c1cccc(N(CC(=O)Nc2ccc(C(F)(F)F)cc2)S(C)(=O)=O)c1	i
O=[N+]([O-])c1ccccc1-c1ccc(CN2CCN3CCCC3C2C2CCCCC2)o1 (centres undefined)	i
N#Cc1nc(-c2ccccc2Cl)oc1NCCCN1CCOCC1	i
Cc1c(Cl)cccc1NC(=O)Cn1cc(C(=O)C2CC2)c2ccccc21	i
O=C(Nc1ccc(S(=O)(=O)Nc2ncccn2)cc1)c1ccccc1Oc1ccccc1	i
CCCNC(=O)N(C)C[C@@H]1Oc2cc(-c3ccccc3F)ccc2S(=O)(=O)N([C@H](C)CO)C[C@H]1C	i
CCN(CC)CCn1nnc2c(=O)oc3ccccc3c21	i
COc1ccc(-n2c(SCCC(=O)O)nnc2-c2ccncc2)cc1	i
C[C@H]1CN([C@@H](C)CO)C(=O)c2cc(NC(=O)Cc3cn(C)c4ccccc34)ccc2O[C@@H]1CN(C)C	i

SMILES	ID4 binder
Cc1cccc(NC(=O)CSc2nnc(-c3cccnc3)n2-c2ccccc2)c1C	i
C[C@@H]1CN([C@H](C)CO)C(=O)c2cc(C3=CCCC3)cnc2O[C@H]1CN(C)Cc1ccccn1	i
CC(=O)c1cccc(NC(=O)NCc2cc(C)n(C)n2)c1	i
CCCN(C)C[C@@H]1Oc2cc(C#CC3CCCCC3)ccc2S(=O)(=O)N([C@@H](C)CO)C[C@@H]1C	i
C[C@@H]1CN([C@@H](C)CO)C(=O)c2cc(/C=C/c3ccccc3)cnc2O[C@@H]1CN(C)Cc1cccnc1	i

# An excerpt from above in order of molar mass, lowest first.
SMILES	ID4 binder
CC(=O)c1cccc(NC(=O)NCc2cc(C)n(C)n2)c1	i
Cc1cccc(NC(=O)CSc2nnc(-c3cccnc3)n2-c2ccccc2)c1C	i
CCCN(C)C[C@@H]1Oc2cc(C#CC3CCCCC3)ccc2S(=O)(=O)N([C@@H](C)CO)C[C@@H]1C	i

# Some of the compounds tested; the hit share may differ from the screen's.
